# N370S GC: inhibits or activates N370S mutant glucocerebrosidase | Potency, µM (series often up to 59.4 µM), for inactives: at the top dose activity change, negative = inhibition, usual class: inhibitors | P04062 | N370S GC spleen homogenate, 4MU-glucoside fluorescence | actives 0.092% (n = 330,000);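 also: 0% = full enzyme activity and -100% = no enzyme basal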
# FEN1 inh: inhibitors of human flap endonuclease 1; P39748; Recombinant FEN1 flap cleavage, fluorescence, 15 min; Potency, µM (highest dose often 114 µM), for the others: top-dose activity change, negative = inhibition, hits mostly inhibitors; actives 0.35% (n = 390,000); AID 588795; also: nearly all actives have a fitted effect of over 65% in size
# Target sequence (P39748 whole entry, looked up): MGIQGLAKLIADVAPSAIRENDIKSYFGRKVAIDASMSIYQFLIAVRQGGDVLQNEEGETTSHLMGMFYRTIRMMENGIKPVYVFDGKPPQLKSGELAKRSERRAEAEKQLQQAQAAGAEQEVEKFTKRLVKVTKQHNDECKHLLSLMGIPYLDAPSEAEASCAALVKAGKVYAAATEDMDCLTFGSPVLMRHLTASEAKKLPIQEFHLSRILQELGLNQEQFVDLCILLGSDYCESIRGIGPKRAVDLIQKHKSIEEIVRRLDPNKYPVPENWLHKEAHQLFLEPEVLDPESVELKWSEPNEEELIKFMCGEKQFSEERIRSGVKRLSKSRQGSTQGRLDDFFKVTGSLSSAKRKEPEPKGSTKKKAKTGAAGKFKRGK
#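 Recombinant FEN1 (10 nM) was preincubated with pin-transferred compounds for 15 min at room temperature, then flap DNA substrate (50 nM final) was added. Plates were read at 0 and 15 min, and normalized concentration–response data were fitted to a four-parameter Hill equation.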
# Starred values were filed as active, the others as inactive; ? = inconclusive; . = not tested or not shown; & = joins results of further samples. Calls follow the shape of the dose curve; as a rule, active = well fitted curve in the direction sought with a large enough effect; inconclusive = small, poorly fitted or top-dose-only effect, or another doubt; inactive = no such curve, though single readings can be large; an effect the other way counts as inactive or inconclusive. Unless noted, % is scaled to controls: 0 for no effect and ±100 for the full control effect; potency is read from the fitted curve at half-maximal effect.
Molecule | N370S GC | FEN1 inh
CCOC(=O)/C(=N\Nc1ccccc1)P(=O)(c1ccccc1)c1ccccc1 | 3% | -10%
NC(=O)c1ccc(Oc2ccc(Cl)c3ccccc23)c([N+](=O)[O-])c1 | 12% | -11%
Cc1ccc(NC(=O)c2nc[nH]c2C(=O)NCC(=O)OC(C)(C)C)cc1 | 15% | -8%
CC(C(=O)NCCCc1ccccc1)c1ccc([N+](=O)[O-])cc1 (stereo not given) | -6% | -10%
CCc1ccccc1N(CC)C(=O)c1cc2c(s1)-c1ccccc1SC2 | . | -14%
Cc1cc(C(=O)Nc2ccc(Cl)c(S(=O)(=O)N3CCOCC3)c2)c2ccccc2n1 | . | 8%
COc1cc(C(=O)O/N=C2/C=CC(=O)C(C)=C2C)cc(OC)c1OC | -2% | 1%
CCOC(=O)c1c(S(=O)(=O)N2CCC(C(=O)N3CCN(c4cccc(C)c4C)CC3)CC2)c(C)n(C)c1C | . | -11%
CN(C)/C=N/c1cc(=O)n(C)c(=O)n1Cc1ccccc1 | -9%&9% | -5%
COCCNC(=S)Nc1cc(OC)c(OC)cc1C#N | 7% | -19%
COc1cc(/C=C2\SC(c3ccc(C)cc3)=NC2=O)ccc1O | 4% | ?
COc1ccc(CN(C(=O)CN2C(=O)c3ccccc3S2(=O)=O)C(C(=O)NCC2CCCO2)c2ccncc2)cc1 (stereo not given) | 3% | -10%
CC(=O)Nc1ccc(S(=O)(=O)NCC(=O)OCC(=O)NCc2ccco2)cc1 | -1% | -2%
CCCCn1c(N)c(N(CC)C(=O)c2ccc3c(c2)S(=O)(=O)c2ccccc2C3=O)c(=O)[nH]c1=O | -1% | -13%
Cc1ccc(S(=O)(=O)N2CCCN(S(=O)(=O)C3CCS(=O)(=O)C3)CC2)cc1 (stereo not given) | -9% | -15%
Cc1ccc2c(c1)N(C(=O)Nc1cccc3c1CCCC3)CC(C)O2 (stereo not given) | . | -5%
CCn1c(SC)nc(O)c(C(c2ccc(OC)c(O)c2)c2c(O)nc(SC)n(CC)c2=O)c1=O | 15% | 1%
CS(=O)(=O)c1ccc(CNC(=O)C2(C(F)(F)F)CC(CCCO)CCCO2)cc1 (stereo not given) | 4% | -8%&-19%
CCOc1ccc(S(=O)(=O)N=C(c2ccccc2)N2CCOCC2)cc1 | . | 13%
COC(=O)NCC(C)OC(=O)Nc1ccc(Cl)cc1 (stereo not given) | -2% | -11%

Molecule | N370S GC | FEN1 inh
CCOC(=O)Nc1sc2c(c1C(=O)OCC)CCC2 | 7% | 8%
O=c1ccc2cc(S(=O)(=O)N3CCN(c4ccccc4)CC3)ccc2o1 | -1% | -1%
Cc1nc(SCC(=O)NNC(=O)c2ccc(F)cc2)c2ccccc2n1 | . | 10%
C=CCn1c(Br)nc2c1c(=O)n(C)c(=O)n2C | 3% | 15%
Cc1ccc(S(=O)(=O)NCC(c2ccccc2)N2CCCCC2)cc1 (stereo not given) | -7% | -21%
CC(C)c1nc(SCC(=O)N2CC(=O)Nc3ccccc32)c2ccccc2n1 | 3% | -7%
COc1ccc(Cl)cc1NC(=O)CCN1C(=O)NC(C)(C)C1=O | -8% | 8%
COc1cc(OC)c(NC(=O)c2c3c(nc4ccccc24)C(=O)N(C2CCCCC2)C3)cc1Cl | . | 13%
COCCCNC(=O)c1nn(C)c2c1CS(=O)(=O)c1ccccc1-2 | . | 29%
COc1cc(CCN2C(=O)c3cccc4cccc(c34)C2=O)c(S(=O)(=O)N2CCCCCC2)cc1OC | 5% | -4%
O=C(C1CCC(CNS(=O)(=O)c2cccc3nsnc23)CC1)N1CC=C(c2ccccc2)CC1 (stereo not given) | -1% | -4%
COc1ccc(C(=O)NCC(=O)OCC(=O)N2N=C(c3ccc(Cl)cc3)CC2c2ccco2)cc1OC (stereo not given) | -3% | 0%
C=CCN(CC=C)C(=O)c1cc2ccccc2c(=O)o1 | -1% | -2%
Cc1ccc(OCCCn2cc(C#N)c3ccccc32)cc1 | ? | -20%
Fc1ccc(C2c3[nH]c4ccccc4c3CCN2Cc2cccn2-c2ncccn2)cc1 (stereo not given) | -4% | 0%
Cn1c(=O)c(C(=O)CN2CC(=O)Nc3ccccc32)c(N)n(Cc2ccccc2)c1=O | 12% | 2%
COc1ccc(C(=O)N/C(=C\c2ccc3c(c2)OCO3)C(=O)Nc2cccc(C(=O)O)c2)cc1 | 3% | -11%
CCOC(=O)c1nnn(CC(=O)Nc2cc(Cl)ccc2C)c1C(=O)OCC | 11% | -7%
COc1cccc(C(=O)Nc2cccc(S(=O)(=O)NC3=NCCC3)c2)c1 | . | 0%
Cc1cccc2nc(-c3ccco3)c(Nc3ccc4c(c3)OCO4)n12 | -7% | 9%&1%

Molecule | N370S GC | FEN1 inh
COc1ccc(-n2c(SCC(=O)Nc3cccc(C)c3C)nc3c([nH]c4ccccc43)c2=O)cc1 | . | 15%
COc1ccccc1C(=O)OCc1c(F)cccc1Cl | 15% | -15%
CCc1ccc(N(CC(=O)N2CCN(Cc3ccccc3)CC2)S(C)(=O)=O)cc1 | -6% | -3%
CN(Cc1ccccc1)c1nc(N)c([N+](=O)[O-])c(Nc2cccc(F)c2)n1 | -11% | -23%
COc1cc2cc(CCCOC(=O)c3ccc4c(c3)OCO4)oc(=O)c2cc1OC | . | -12%
O=C(NCCN1CCCC1)c1ccc(CS(=O)(=O)c2c(Cl)cccc2Cl)o1 | -9% | -1%
CCO[C@H]1OC(C(=O)N2CCN(Cc3ccccc3)CC2)=C[C@@H](c2ccccc2)[C@@H]1CCCO | -6% | -20%
S=C(Nc1ccccn1)NC1CCCCC1 | 25% | -2%
CN(C(=O)COC(=O)C12CC3CC(CC(C3)C1)C2)c1c(N)n(Cc2ccccc2)c(=O)[nH]c1=O | . | 0%
Nc1ncnc(NCc2ccc(F)cc2)c1[N+](=O)[O-] | 0% | -1%
CSc1nnc2n(-c3ccc(C)cc3)c(=O)c3c4c(sc3n12)COC(C(C)C)C4 (stereo not given) | -3% | 26%
COCCn1c(SCC(=O)N2CCCC2)nnc1-c1ccoc1C | -19% | 1%
OCCNCCCCOc1cccc(Br)c1 | -1% | 2%
COc1cccc(CN(C)C(=O)c2sccc2-c2ccccc2)c1OC | -6% | -4%
O=C(CSc1nnc(-c2cccnc2)o1)Nc1nccs1 | -14% | 5%
CCN(CC)CCN1C(=O)C(O)=C(C(=O)c2ccco2)C1c1ccccn1 (stereo not given) | 14% | -1%
O=C(CNc1ccccc1Cl)N/N=C1\CCCc2ccccc21 | -6% | 15%
Cc1c([N+](=O)[O-])c(N)nn1C | -2% | -5%
COc1cccc(-c2nc(CS(=O)(=O)CC(=O)Nc3cc(F)ccc3F)c(C)o2)c1 | -3% | 19%&-5%
COc1cccc(NC(=O)CN(c2ccc(C)cc2)S(=O)(=O)c2c(C)nn(C)c2C)c1 | -6% | -13%

# The line under a structure holds: N370S GC	FEN1 inh
CCCc1cc(=O)n2[nH]c(NC(=O)c3ccco3)nc2n1
  1%	0%
CCC1=Nc2cc(C(=O)NCc3cccnc3)ccc2Sc2ccc(C)cc21
  -6%	-5%
CCN(c1cccc2ccccc12)S(=O)(=O)c1cccs1
  .	-18%
CS(=O)(=O)c1nc(S(=O)(=O)c2ccc(Cl)cc2)c(N2CCC(O)CC2)s1
  4%	-2%
CC[C@@]12C(=O)N(c3cccc(F)c3)C(=O)N1[C@H](c1ccc(Br)cc1)[C@@H]1C(=O)N(C(C)(C)C)C(=O)[C@@H]12
  -5%	-17%
O=C(N=C1SC2CS(=O)(=O)CC2N1c1ccc(Cl)cc1Cl)C1CC1 (stereo not given)
  2%	-5%
Clc1ccc(Cn2ncc3c(NCCN4CCOCC4)ncnc32)cc1
  -23%	4%
Cn1cccc1Cc1nnc(SCC(=O)N2CCCCCC2)n1CCc1ccccc1
  -4%	-6%
Cn1ncc(Br)c1NC(=O)Nc1ccc(OC(F)(F)F)cc1
  -1%	-2%
O=C(NCc1ccccc1)C1CCN(S(=O)(=O)Cc2ccccc2)CC1
  .	16%
COC(=O)C(NC(=O)C(CC(C)C)NC(=O)C1CCC(C)CC1)C(C)C (stereo not given)
  1%	1%
COc1ccc(N(C(=O)c2ccco2)C(C(=O)NC2CCCC2)c2ccc(C)cc2)c(OC)c1 (stereo not given)
  -12%	4%
C#CCOCCOCCOCCNc1nc(N2CCN(C(=O)C([C@@H](C)O)n3cc([C@@H](N)CCCCN)nn3)CC2)nc(N2CCN(C(=O)[C@H](CO)n3cc([C@@H](N)C(C)C)nn3)CC2)n1 (stereo not given in full)
  .	14%
Cc1csc2nc(COc3cccc(NC(=O)c4ccccc4F)c3)cc(=O)n12
  .	0%
CCN(CC)CCN1C(=O)C(=O)/C(=C(/O)c2ccc(OCC(C)C)cc2)C1c1ccncc1 (stereo not given)
  25%	.

# The line under a structure holds: N370S GC	FEN1 inh
COC(=O)Nc1c(-c2ccccc2)nc2ccc(C)cn12
  2%	-2%
CCN(CC)CCNC(=O)C1c2ccccc2C(=O)N(CCOC)C1c1ccc(F)cc1 (stereo not given)
  ?	-1%
CCOP(=O)(OCC)C(NC(=O)Nc1ccc(Cl)cc1)C(N)=O (stereo not given)
  -1%	10%
Cc1cc(/C=N/NC(=O)c2ccc(CN3CCOCC3)cc2)c(C)n1-c1ccccc1
  4%	-1%
COc1ccc(Nc2ncnc3ccc(OC)cc23)cc1
  -17%	.
Cc1cc(C(=O)Nc2cccc([N+](=O)[O-])c2C)cs1
  0%	21%
CS(=O)(=O)c1cccc(C(=O)Nc2cccc(S(=O)(=O)N3CCCC3)c2)c1
  -7%	8%
Cc1cc(C)n(C(=O)c2ccc(S(=O)(=O)N3CCCC3)cc2)n1
  -8%	-3%
Cc1nn(C(=O)CN2C(=O)c3ccccc3C2=O)c(C)c1Br
  3%	-2%
CC(=O)c1cccc(NC(=O)C2CCN(C(=O)c3ccccc3Cl)CC2)c1
  -7%	-2%
CC(=O)c1c(C)nc2ccc(Cl)cn12
  -6%	-1%
COc1ccc(-c2ccnc(SCC(=O)c3ccc(OC)c(OC)c3)n2)cc1
  -1%	-16%
CCN(CC)CCC(C)OC(c1ccccc1)c1ccccc1 (stereo not given)
  7%	23%
Cc1nc(NC(=O)CSc2nnc(C3CC3)n2C)sc1C(=O)N(C)C
  4%	5%
COc1ccc(-n2cccc2C=O)cc1OC
  -9%	-6%

# The line under a structure holds: N370S GC	FEN1 inh
Cc1ccc(NC(=S)NNC(=O)c2nn(C)cc2Cl)cc1
  9%	-4%
CCOc1ccccc1NS(=O)(=O)c1ccc(OC)c(OC)c1
  -10%	-8%
N#Cc1ccc(OC(=O)c2cc(-c3ccc(Cl)cc3)on2)cc1
  .	19%
Cc1cc(C)c(S(=O)(=O)Nc2cccc(/C=C/C(=O)O)c2)c(C)c1
  1%	4%
COc1ccccc1-c1nnc(SCC(=O)NC2CCCCC2)n1N
  .	0%
O=C(c1ccc2nc(-c3ccco3)c(-c3ccco3)nc2c1)N1CCN(c2ccccc2)CC1
  -6%	-4%
CC1=NN(c2ccccc2)C(=O)/C1=C\c1sccc1C
  3%	?
O=C(Nc1ccc(F)cc1)NC1CCN(Cc2ccccc2)CC1
  -3%	2%
CC(=O)c1sc(-c2cccc(Cl)c2)nc1C
  -1%	-17%
Cn1c(Cc2ccccc2)nnc1SCC(=O)c1ccc(Br)s1
  3%	-11%
Cc1cccc(NC(=S)N(CCN(C)C)C(C)c2cccnc2)c1 (stereo not given)
  7%	0%
N#Cc1cc(Oc2ccccc2)c(-n2nnc3ccccc32)cc1C#N
  0%	2%
CCOC(=O)c1ccc(-n2c(CN3CCN(CC)CC3)nc3ccc([N+](=O)[O-])cc3c2=O)cc1
  -8%	-3%
CCOC(=O)c1oc2ccc(CNC(C)(C)C)c(Cl)c2c1C
  -3%	?
Cn1nc(C(F)(F)F)c(C(=O)Nc2ccc(F)cc2F)c1Sc1ccc(C(F)(F)F)cc1
  11%	-5%

# Profiles from above:
# Results for `O=C(Nc1ccc(F)cc1)NC1CCN(Cc2ccccc2)CC1` = N370S GC: -3%; FEN1 inh: 2%
# Results for `CCOc1ccccc1NS(=O)(=O)c1ccc(OC)c(OC)c1` = N370S GC: -10%; FEN1 inh: -8%

# Further entries
# The line under a structure holds: N370S GC	FEN1 inh
CCN(C(=O)CCN1C(=O)c2ccccc2S1(=O)=O)c1ccccc1
  2%	-18%
CC1=C(C(=O)OCc2ccccc2)C(c2ccc(Cl)cc2)NC(=O)N1C (stereo not given)
  -5%	-13%
c1ccc(CNc2ncnc3ccccc23)cc1
  -6%&5%	4%&-7%
CCn1nc(C(=O)OCC(=O)N(CCC#N)c2ccccc2)c2ccccc2c1=O
  .	-3%
CC[C@@H](C)[C@@H]1CN([C@@H](CN2CCC[C@H]2CN2C(N)=NC[C@H]2C(C)C)C(C)C)C(=N)N1CCCC1CCCC1
  .	3%
O=C(c1ccccc1)N1CCN(S(=O)(=O)N2CCCCC2)CC1
  3%	-14%
Cc1nnc(SCC(=O)NCCN2C(=O)CSC2=O)s1
  3%	5%
CCOC(=O)N1CCC(NC(=O)Cn2cccc2C(=O)c2ccccc2C)CC1
  2%	18%

# Compounds shown so far with a tert-butyl group, in the order listed:
# The line under a structure holds: N370S GC	FEN1 inh
Cc1ccc(NC(=O)c2nc[nH]c2C(=O)NCC(=O)OC(C)(C)C)cc1
  15%	-8%
CC[C@@]12C(=O)N(c3cccc(F)c3)C(=O)N1[C@H](c1ccc(Br)cc1)[C@@H]1C(=O)N(C(C)(C)C)C(=O)[C@@H]12
  -5%	-17%
CCOC(=O)c1oc2ccc(CNC(C)(C)C)c(Cl)c2c1C
  -3%	?

# Screening results from PubChem.

# The list is partial, and most or all hits are left out here.
